Source: PubChem
V. cholerae motility: Vibrio cholerae motility inhibitors, OD read-out (AID 588778); Vibrio cholerae motility, OD read-out; higher % means a stronger effect; test concentration not given here; primary cut-off and reference of the scale not given here; strong numbers were not always called active; 10,000 tested, under 10 active; inhibition, %, or IC50 in µg/mL where a hit was titrated; in the data active = confirmed in a dose series
V. cholerae motility viability: also measured in V. cholerae motility; calls as there; inhibition, %; measured here: bacterial viability at 10 ug/mL;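 higher means fewer living bacteria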
Active calls of the source: *. The list is partial; count on the stated rates, not on these rows.

The line under a structure holds: V. cholerae motility | V. cholerae motility viability
> O=C(OCc1ccc2c(c1)OCO2)c1ccc(S(=O)(=O)N2CCCCC2)cc1
  12% | 8
> O=C(NC1=NC2CCCCC2N1)c1ccccc1 (centres undefined)
  -11% | -7
> CCn1cc(C2C3=C(CC(C)(C)CC3=O)N(c3ccc(C)cc3)C3=C2C(=O)CC(C)(C)C3)c(C)n1
  0% | -6
> N#Cc1cc(Nc2ccc3nc(NC(=O)C4CCCCC4)sc3c2)c([N+](=O)[O-])cc1C#N
  -4% | -5
> O=C(CC12CC3CC(CC(C3)C1)C2)NNC(=O)Nc1ccc2c(c1)OCO2
  13% | 1
> O=C(O)Cc1ccc(NC(=S)Nc2ccc([N+](=O)[O-])cc2)cc1
  7% | -1
> O=C(Nc1ccc2c(c1)OCO2)c1nc2nc(-c3ccccc3)cc(C(F)(F)F)n2n1
  4% | -1
> Cc1scc(C(=O)NN2CCN(C)CC2)c1-c1ccccc1
  -3% | -1
> Cc1cnn(CCCNC(=O)Nc2ccc(F)c(Cl)c2)c1
  81% | 27
> CCc1cc(Br)ccc1NC(=S)NCc1ccco1
  1% | 2
> S=C(NCCc1ccccc1)N1CCN(c2ccccc2Cl)CC1
  -20% | -6
> Cc1cc2c(cc1C)NC1(C(=O)Nc3ccccc31)C1=C(CC(C)(C)CC1=O)N2 (centres undefined)
  -3% | -6
> O=c1c2cc(Cl)ccc2sc2ccc([N+](=O)[O-])cc12
  9% | -2
> N#C/C(=C/c1ccc[nH]1)c1ccc(C#N)cc1
  8% | 1
> CCCn1nnnc1NCc1ccc(OCc2cccs2)c(OC)c1
  1% | 0
> Oc1ccc(C(O)C(Cl)(Cl)Cl)cc1 (centres undefined)
  20% | 5
> CC1=[N+]([O-])C(C)(C)C(c2cccs2)=[N+]1[O-]
  20% | -2
> Cn1nc([N+](=O)[O-])nc1Sc1nnnn1C1CCCCC1
  3% | -2
> CCC(C)c1ccc(NC(=S)Nc2cc(OC)c(Cl)cc2OC)cc1 (centres undefined)
  11% | 5
> COc1ccc(-c2nc(-c3ccccc3)c(-c3ccc(F)cc3)[nH]2)cc1OC
  -25% | -7

Of the compounds above, these contain a Cl atom.
The line under a structure holds: V. cholerae motility | V. cholerae motility viability
> Cc1cnn(CCCNC(=O)Nc2ccc(F)c(Cl)c2)c1
  81% | 27
> S=C(NCCc1ccccc1)N1CCN(c2ccccc2Cl)CC1
  -20% | -6
> O=c1c2cc(Cl)ccc2sc2ccc([N+](=O)[O-])cc12
  9% | -2
> Oc1ccc(C(O)C(Cl)(Cl)Cl)cc1 (centres undefined)
  20% | 5
> CCC(C)c1ccc(NC(=S)Nc2cc(OC)c(Cl)cc2OC)cc1 (centres undefined)
  11% | 5

Further results:
The line under a structure holds: V. cholerae motility | V. cholerae motility viability
> CCOc1ccc2nc(SCC(=O)c3ccc(C)s3)sc2c1
  5% | -6
> COc1ccc(CCNC(=O)c2ccnc(C(C)(C)C)c2)cc1OC
  -8% | 9
> CCOc1ccc(CC(=O)Nc2ccc(F)cc2)cc1OCC
  5% | -2
> C=CCNc1nc2cc([N+](=O)[O-])ccc2o1
  17% | 1
> N#Cc1nc2c(-c3nc4ccccc4s3)c(N)n(-c3ccc(Cl)cc3)c2nc1C#N
  11% | 0
> O=C(O)CCSC1CC(=O)N(c2ccc(F)cc2)C1=O (centres undefined)
  15% | 8
> Cc1c(N2C(=O)c3ccccc3C2(O)c2ccccc2)c(=O)n(-c2ccccc2)n1C (centres undefined)
  -17% | -11
> C=CCN1C(=O)c2cccc3c(N4CCOCC4)ccc(c23)C1=O
  5% | -3
> O=C(O)c1cccc(NC(=O)c2cn(-c3ccccc3)nc2-c2ccc(Cl)s2)c1
  6% | 1
> C=CCc1cc(C)cc(C)c1OCCn1cncn1
  13% | 28
> CS(=O)(=O)N(CC(=O)N1CCN(c2ccccc2F)CC1)Cc1ccccc1
  -12% | -5
> CC(Sc1nc(O)c(-c2ccccc2)c(=O)[nH]1)C(=O)Nc1cccc(Cl)c1 (centres undefined)
  6% | 1
> CC(C(=O)Nc1ccc2c(c1)OCCO2)n1nnc(-c2ccccc2)n1 (centres undefined)
  -5% | -9
> CCC12c3ccccc3C(c3ccccc31)C1C(=O)NC(=O)C12 (centres undefined)
  -8% | 5
> Fc1ccccc1Oc1nc(N2CCOCC2)nc(N2CCOCC2)n1
  -7% | -3
> COC(=O)c1sccc1NC(=O)Cn1nnc(-c2ccc(C)cc2)n1
  17% | 7
> C#CC(C)(C)OC(=O)Nc1ccc([N+](=O)[O-])cc1
  31% | 7
> NS(=O)(=O)c1ccc(N2CCCCCC2)c([N+](=O)[O-])c1
  6% | -4
> CCN(CC)CC#CC(C)(OC(C)=O)c1ccccc1 (centres undefined)
  6% | -2
> COc1cc(CNS(=O)(=O)c2ccc(F)cc2)cc(OC)c1OC
  16% | -3
> Cc1ccc(SCCC(=O)N2CCOCC2)cc1
  -8% | -7
> CC(=O)c1c(-c2ccccc2)c2cc(Cl)ccc2n(C)c1=O
  16% | 1
> FC(F)(F)c1ccccc1NC(=S)NCc1cn(-c2ccccc2)nc1-c1ccccc1
  4% | -5
> COc1ccc(N(C(=O)c2ccncc2)S(=O)(=O)c2ccc3c4c(cccc24)C(=O)N3C)cc1
  -15% | -9
> Cc1nnc(SCc2cc(=O)[nH]c(/N=C(\N)Nc3ccccc3Sc3ccccc3)n2)s1
  3% | -5
> Cc1oc(C(=O)O)cc1CSc1nnc(-c2ccccc2)n1C
  -16% | -1
> CN1CCN(CC(=O)N(Cc2c(C#N)c3ccccc3n2C)c2ccccc2)CC1
  4% | 3
> O=C(Nc1ccc(Cc2ccncc2)cc1)C(F)(F)F
  15% | -2
> CCc1cc(Br)ccc1NC(=S)Nc1ccc([N+](=O)[O-])cc1
  -5% | -3
> Cc1cccc(NC(=O)C(=S)NC2CCCC2)c1C
  -1% | -8
> O=C(NCc1ccco1)NCC(F)(F)F
  9% | 22
> O=C(Cn1nnc2ccccc21)NCCN1CCCC1
  8% | 2
> Cn1cnnc1Sc1cc(N2CCN(S(C)(=O)=O)CC2)ccc1[N+](=O)[O-]
  -4% | -8
> CSc1ccc(/C=C2\C(O)C3CCN2CC3)cc1 (centres undefined)
  22% | 3
> CCOC(=O)c1c[nH]c2c(Cl)cccc2c1=O
  52% | 9
> COC(=O)Nc1ccc(S(=O)(=O)n2cnc3ccccc32)cc1
  10% | -1
> COc1ccc(-c2noc(CNC(=O)c3cc(Br)ccc3Cl)n2)cc1
  4% | 2
> O=C(NC12CC3CC(CC(C3)C1)C2)N(Cc1ccccc1)Cc1ccncc1
  -16% | -7
> CN(C1CCS(=O)(=O)C1)S(=O)(=O)c1ccc(C2CCCCC2)cc1 (centres undefined)
  -10% | -6
> CCN1C(N)=C(C#N)C(c2ccc3oc4ccccc4c3c2)C2=C1C(=O)CCC2 (centres undefined)
  10% | -3
> CN1C(=O)c2cccc3c(S(=O)(=O)NCc4ccco4)ccc1c23
  -2% | -1
> CCN(CC)C(=O)CNC(=O)Cc1ccc(Cl)cc1
  13% | 0
> CCOC(=O)C1CCN(CCC(=O)Nc2ccc(C)c(C)c2)CC1
  18% | 10
> CC(C)(C)c1ccc(OCC(=O)NCc2ccco2)c(Br)c1
  10% | -3
> COc1cccc2c1OC1(C)NC(=O)NC2C1C(=O)Nc1cccc(Cl)c1 (centres undefined)
  23% | 14
> CSc1ccc(N2CCN(CCCNC(=O)Nc3ccccc3F)CC2)cc1
  9% | -6
> CCNC(=S)Nc1ccc(Cc2nc3ccccc3[nH]2)cc1
  4% | 3
> O=C(O)c1cc(-c2ccc(F)cc2)no1
  5% | 2
> S=C(NCCSCc1cccs1)Nc1ccccc1
  42% | 11
> COc1cc(-c2nnc(-c3cc(-c4ccccc4)nc4ccccc34)o2)cc(OC)c1OC
  1% | 0

Carrying on:
The line under a structure holds: V. cholerae motility | V. cholerae motility viability
> CC(C)(C)NS(=O)(=O)c1ccc(NS(=O)(=O)Cc2ccccc2)cc1
  0% | 0
> Oc1ccc(O)c(SCCCCN2CCOCC2)c1
  5% | 25
> O=C(O)CC(NCc1ccco1)C(=O)Nc1cccc(C(F)(F)F)c1 (centres undefined)
  3% | -2
> O=C(CSc1nnc(-c2ccccc2)o1)Nc1nc(-c2ccccc2)ns1
  -8% | -2
> CCCCOC(=O)Nc1nc2ccc(OC)cc2s1
  4% | -3
> O=C(NC(=S)Nc1cccc(-c2nc3ccccc3[nH]2)c1)c1ccccc1[N+](=O)[O-]
  -11% | -8
> Cc1ccc(S(=O)(=O)c2cccc(S(=O)(=O)NC3CCCC3)c2)cc1S(=O)(=O)NC1CCCC1
  -7% | -3
> NC1=NC(=O)/C(=C/c2cccc(OCc3ccc(Br)cc3)c2)S1
  -5% | 0
> O=[N+]([O-])c1cccc(NC(=S)Nc2ccc(S(=O)(=O)N3CCCC3)cc2)c1
  24% | 7
> Cc1nnc(SCc2nc3ccccc3c(=O)n2-c2ccccc2Cl)n1N
  10% | 4
> CN1CCC(OC(=O)C23CCC(C)(C(=O)O2)C3(C)C)CC1 (centres undefined)
  -6% | -3
> CNS(=O)(=O)c1ccc(NC(=O)c2csc3ccccc23)cc1
  -22% | -7
> CC1Cc2ccccc2N1C(=S)NCC1CCCO1 (centres undefined)
  7% | -3
> CCOC(=O)N1CCN(C(=O)CCCOc2ccccc2)CC1
  5% | 2
> Cc1nn(C(=O)COc2ccccc2Br)c(C)c1Sc1ccccc1[N+](=O)[O-]
  3% | -2
> Cc1cc(Br)c(NC=O)cc1C
  4% | 9
> CCOc1ccc(C(=O)NC(=S)NC23CC4CC(CC(C4)C2)C3)cc1[N+](=O)[O-]
  1% | -4
> COC(=O)NCc1cc2cc(Cl)ccc2[nH]1
  8% | 2
> CC1Cc2cc(-c3nn(-c4ccccc4)cc3/C=C(\C#N)c3nc4ccccc4c(=O)[nH]3)ccc2O1 (centres undefined)
  16% | 1
> CONc1nc(NC(C)(C)C)nc(OCC#N)n1
  3% | -3
> S=c1nc(N2CCCCC2)[nH]c(N2CCCCC2)n1
  24% | -2
> O=C(Nc1ccc2c(c1)ncn2C1CCCCC1)c1cccs1
  7% | -1
> COC(=O)c1ccc(CC2CCCC2=O)o1 (centres undefined)
  12% | -9
> CCOC(=O)c1ccc(NC(=O)CN(c2ccccc2Br)S(C)(=O)=O)cc1
  5% | -2
> O=C(C(Cl)Cl)N1CCN(c2ccccc2F)CC1
  6% | -2
> CC(CNC(=O)COc1ccccc1)OC(=O)Nc1cccc(Cl)c1 (centres undefined)
  11% | 1
> O=S(=O)(NC(=S)c1ccccc1)c1ccc(F)cc1
  9% | 1
> COc1ccc(/C=C/C(=O)Nc2ncc(Cc3ccc(F)cc3)s2)cc1
  21% | 2
> CC(C)OC(=S)N/C(=N/S(=O)(=O)c1ccccc1)c1ccccc1
  -3% | -4
> Cc1ccc(NC(=O)c2ccccc2NC(=S)NC(=O)c2ccn(C)n2)cc1
  4% | 0
> Cc1scc(C(=O)NC2=NCCS2)c1-c1ccccc1
  2% | -5
> CSc1c(C)cccc1OCC(=O)NCc1ccccc1
  22% | 7
> O=C(COc1ccc2c3c(c(=O)oc2c1)CCC3)Nc1ccc(S(=O)(=O)N2CCOCC2)cc1
  -7% | -3
> CCOC(=O)C(=O)Nc1ccccc1C(=O)Nc1ccc(OC)cc1
  6% | -2
> CCOC(=O)Nc1ccc(Br)cc1F
  9% | 0
> O=C(O)CCCN1C(=O)c2cccc3c(Br)ccc(c23)C1=O
  1% | -3
> COc1ccc(CNCC2(c3ccccc3)CCCC2)c(OC)c1
  34% | 4
> COC(=O)c1ccc(NS(=O)(=O)N(C)C)cc1
  -1% | -12
> Cn1nc([N+](=O)[O-])nc1Sc1nnc(-c2cccnc2)o1
  44% | 16
> COc1ccc(Cc2nnc3c4cnn(C)c4ncn23)cc1
  1% | 8
> Cc1ccc(-n2nc3cc(C)c(N)cc3n2)cc1
  24% | 8
> CCOc1ccc(-c2n[nH]c(=S)c3ccccc23)cc1
  -10% | -6
> O=S(=O)(NC1CCCCCCC1)c1ccc(Cl)s1
  10% | 3
> COC(=O)COc1ccc(S(=O)(=O)Nc2ccc(OC)cc2OC)cc1Cl
  9% | -1
> COc1cccc(C(c2c(C)[nH]c3ccccc23)c2c(C)[nH]c3ccccc23)c1OCC(=O)O
  -1% | 8
> O=S1(=O)CCC(N2CCN(C/C=C/c3ccccc3)CC2)C1 (centres undefined)
  7% | 0
> Cc1cccc(C(=O)N2CCC(Cc3ccccc3)CC2)c1[N+](=O)[O-]
  15% | 4
> O=C1CCc2cc(OCc3ccc(Cl)cc3)ccc2O1
  -2% | -3
> Oc1ccccc1C(O)(c1ccccc1)c1ccccc1
  17% | 19
> Cc1ccc(C(=O)CSc2nc3ccccc3c(=O)n2N)o1
  15% | 3

The list goes on:
The line under a structure holds: V. cholerae motility | V. cholerae motility viability
> N#C/C(=C\c1ccc(-c2nc3ccccc3s2)o1)c1nc2ccccc2[nH]1
  6% | 2
> CCOCCCNS(=O)(=O)c1ccccc1[N+](=O)[O-]
  3% | 19
> CC1CN(C(=O)NC23CC4CC(CC(C4)C2)C3)CC(C)O1 (centres undefined)
  -6% | -9
> Cc1ccc(S(=O)(=O)Nc2nc(N3C(=O)c4ccccc4C3=O)n(-c3ccccc3)n2)cc1
  2% | 0
> Fc1ccc(-c2csc(-c3nc(-c4ccc(F)cc4)cs3)n2)cc1
  -16% | -3
> O=C1CC(=O)N2N=C(c3ccccc3)SC2=N1
  5% | -3
> O=C(NCc1ccco1)c1ccccc1SCc1ccc(F)cc1
  33% | 8
> Cc1ccccc1NS(=O)(=O)CCCCC(Cl)(Cl)Cl
  12% | 6
> CC1=C(C(N)=O)C(c2cccc(Cl)c2Cl)NC(=O)N1 (centres undefined)
  9% | 21

A draw from above in order of length of the SMILES, descending.
The line under a structure holds: V. cholerae motility | V. cholerae motility viability
> N#C/C(=C\c1ccc(-c2nc3ccccc3s2)o1)c1nc2ccccc2[nH]1
  6% | 2
> Fc1ccc(-c2csc(-c3nc(-c4ccc(F)cc4)cs3)n2)cc1
  -16% | -3
> CC1=C(C(N)=O)C(c2cccc(Cl)c2Cl)NC(=O)N1 (centres undefined)
  9% | 21
> CCOCCCNS(=O)(=O)c1ccccc1[N+](=O)[O-]
  3% | 19
> O=C(NCc1ccco1)c1ccccc1SCc1ccc(F)cc1
  33% | 8
> O=C1CC(=O)N2N=C(c3ccccc3)SC2=N1
  5% | -3
